CtBP-E1A inh: qHTS Assay for Inhibitors of the CtBP/E1A Interaction. CtBP / adenovirus E1A interaction (AlphaScreen). activity change, % (concentration not given with the values). 340,000 compounds, 0.49% hits. AID 651724, 2012. AlphaScreen GST-E1A/His-CtBP binding, 1536-well; hits give low values; control for the full effect not named in the record; in the data active means activity change below about -65%; inconclusive means about -30% to -65%; inactive means above about -30%; also: % is scaled to controls: 0 for no effect and ±100 for the full control effect
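Protein mix (5X: 125 nM each GST-E1A, His-CtBP) was incubated with pinned compound 2 h at 37 deg C in dark, in 50 mM Tris pH 8.0 buffer with 300 mM NaCl. Glutathione donor and nickel acceptor beads followed; AlphaScreen signal read after 1 h.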
TRPV1 PAM: HTS Assay for Compounds that Act as Potentiators of the Vanilloid Receptor 1; Transient receptor potential cation channel subfamily V member 1 (Homo sapiens), Q8NER1; TRPV1-expressing cells, Fluo-8 calcium influx, capsaicin EC20 potentiation; host cell line not named in the record; control for the full effect not named in the record; potentiation, % at 8.33 µM; 320,000 compounds, 0.02% hits; AID 540277, 2011; active means potentiation above 80%; inconclusive means 30% to 80%; inactive means below 30%; also: 0% is about no effect
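Cells expressing TRPV1 were dye-loaded with Fluo-8 and read kinetically: 10 s baseline, 3 min after compound (agonist portion), then 2 min after EC20 capsaicin (allosteric enhancer portion). Calcium-bound dye fluorescence at 480/520 nm.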
TRPML1 inh: qHTS for Inhibitors of the Human Mucolipin Transient Receptor Potential 1 (TRPML1); TRPML1-inducible cells, Ca2+ dye fluorescence, FDSS; hits give low values; inhibition of EC80 agonist-evoked calcium signal; activity change, negative = inhibition, % (test concentration not listed); 390,000 compounds, 0.02% hits; AID 624415, 2012; in the data active means activity change below about -50%; inconclusive means about -30% to -50%; inactive means above about -30%;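 also: stimulus is agonist 54-4 at its EC80 concentration; % is scaled to controls: 0 for no effect and ±100 for the full control effect; compound concentration not given in the record; the text of the record puts the active cut at -80%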
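TRPML1-DL cells, Tet-induced overnight (~16 h, 37 °C) at 1,500 cells/well, were loaded with Ca8 no-wash dye plus quencher for 45-90 min at room temperature. Compounds were pinned during FDSS kinetic reading; agonist 54-4 at EC80 (4 uM final) then added.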
TRPML1 ag: qHTS for Agonists of the Human Mucolipin Transient Receptor Potential 1 (TRPML1); Mucolipin-1 (Homo sapiens), Q9GZU1; TRPML1-expressing cells, Ca2+ dye fluorescence, FDSS; host cell line not named in the record; reference of the full effect not given here; activation, % (test concentration not listed); 410,000 compounds, 0.12% hits; AID 624414, 2012; in the data active = activation above about 50%; inconclusive = about 30% to 50%; inactive = below about 30%; also: 0% is about no effect; the text of the record puts the active cut at 80%
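TRPML1-DL cells, Tet-induced overnight (~16 h, 37 degrees C), loaded 45-90 min at room temperature with Ca8 no-wash calcium dye plus quencher. FDSS fluorescence: 10 s baseline, compound pin-transfer, 110 s agonist read, then EC80 54-4 (4uM final) and 110 s antagonist read.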
D2 potentiator: Beta-Arrestin HTS for Positive Allosteric Modulators of the Human D2 Dopamine Receptor: Potentiators | D(2) dopamine receptor (Homo sapiens), P14416 | DiscoveRx D2 beta-arrestin cells, luminescence, 90 min; 100% = 57 uM dopamine signal | potentiation, % (test concentration not listed) | 360,000 compounds, 0.23% hits | AID 624464, 2012; active = potentiation of 50% or more; inconclusive = 30% to 50%; inactive = 30% or less;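 also: compound concentration not given in the record; tested on top of an EC20 dose of dopamine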
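PathHunter beta-arrestin assay in DiscoveRx D2 cells. Compounds were added with an EC20 of dopamine (50 nM final) for 90 min at 37 deg C. Luminescence was read 1 h after detection reagent, with 57 uM dopamine as the EC100 control.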
Six1-Eya2 inh: qHTS Assay for Inhibitors of the Six1/Eya2 Interaction. AlphaScreen GST-Six1/His-Eya2 binding, biochemical; hits give low values; control for the full effect not named in the record. activity change, % (no concentration beside the values). 360,000 compounds, 0.56% hits; in the data active = activity change below about -65%; inconclusive = about -30% to -65%; inactive = above about -30%; also: % is scaled to controls: 0 for no effect and ±100 for the full control effect
Target sequence (O00167 whole entry, looked up): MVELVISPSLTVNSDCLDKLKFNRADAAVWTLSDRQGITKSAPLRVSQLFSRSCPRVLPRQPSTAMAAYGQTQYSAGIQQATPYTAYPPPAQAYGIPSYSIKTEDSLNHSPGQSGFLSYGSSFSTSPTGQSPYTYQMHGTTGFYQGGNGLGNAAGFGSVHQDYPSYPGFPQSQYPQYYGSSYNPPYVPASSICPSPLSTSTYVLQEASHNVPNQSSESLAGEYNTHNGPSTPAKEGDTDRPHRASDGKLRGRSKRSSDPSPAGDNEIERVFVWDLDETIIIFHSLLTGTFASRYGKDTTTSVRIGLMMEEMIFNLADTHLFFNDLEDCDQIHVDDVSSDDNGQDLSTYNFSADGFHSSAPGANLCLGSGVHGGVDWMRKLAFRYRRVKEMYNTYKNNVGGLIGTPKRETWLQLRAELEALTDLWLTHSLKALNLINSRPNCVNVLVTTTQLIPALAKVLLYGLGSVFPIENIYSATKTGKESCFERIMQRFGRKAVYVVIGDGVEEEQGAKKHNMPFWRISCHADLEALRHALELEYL
Target sequence (Q15475 whole entry, looked up): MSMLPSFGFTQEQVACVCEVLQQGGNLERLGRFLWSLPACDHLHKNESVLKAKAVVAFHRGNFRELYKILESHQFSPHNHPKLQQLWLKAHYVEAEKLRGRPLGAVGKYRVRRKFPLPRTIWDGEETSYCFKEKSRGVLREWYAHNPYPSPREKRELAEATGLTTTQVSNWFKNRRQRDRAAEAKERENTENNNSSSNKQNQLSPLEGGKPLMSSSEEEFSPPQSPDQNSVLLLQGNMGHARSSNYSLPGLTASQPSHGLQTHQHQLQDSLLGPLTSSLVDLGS
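AlphaScreen with GST-Six1 and His-Eya2 (5X mix: 250 nM and 500 nM), glutathione donor and nickel acceptor beads; buffer 50 mM Tris pH 8.0, 300 mM NaCl, 1 mM TCEP; 1 h at 37 C in the dark.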
* = called active by the depositor; ? = inconclusive; / = not tested or not shown.

Order of values: CtBP-E1A inh, TRPV1 PAM, TRPML1 inh, TRPML1 ag, D2 potentiator, Six1-Eya2 inh
> CCCCn1c(N)c(N(CCC(C)C)C(=O)c2cc(-c3ccco3)nc3ccccc23)c(=O)[nH]c1=O
  -3, -11, -8, 0.0, -5, -14
> COc1ccccc1C(=O)NCC(=O)N1CCN(c2ncccn2)CC1
  /, 3, -4, -1.2, 3, -3
> COc1ccc(N2CCN(S(=O)(=O)c3cc(C)ccc3OC)CC2)cc1
  -21, -9, -24, 1.3, 3, -23
> Cc1ccc(NC(=O)C2CCCN2C(=O)c2cccs2)cc1C (stereo not drawn)
  -4, 12, -1, 0.5, -1, -1
> COc1ccc(Cc2nnc(NC(=O)Cc3cccs3)s2)cc1OC
  5, 20, 1, 0.0, 1, -13
> N/C(=N\S(=O)(=O)c1ccccc1)c1ccc([N+](=O)[O-])cc1
  -15, 4, 7, 0.1, 26, -5
> Cc1ccccc1Oc1ccc(-c2nc(N)nc(N)n2)cc1
  -3, 3, 36, 0.5, 9, 1
> COc1ccc(OC)c(NC(=O)c2ccc(CN3CCOCC3)cc2)c1
  10, -4, -9, -1.0, -1, -4
> COc1ccc(NC(=O)C2CCN(C(=O)[C@@H]3Cc4ccccc4CN3C(=O)OC(C)(C)C)CC2)cc1
  3, -18, -1, 0.4, -12, 1
> CC(=O)CSc1ccc(-c2nc3cc(C)c(C)cc3[nH]2)cn1
  -13, -4, 1, -0.4, -2, 0
> CC(=O)Nc1cc(NC(=O)C2C3C=CC(C3)C2C(=O)O)ccc1Cl (stereo not drawn)
  5, -10, -8, 0.8, -21, -19
> CC(SCc1ccccc1)C(=O)Nc1ccccc1Br (stereo not drawn)
  35, -4, -2, 1.1, -1, 21
> C/C(=N\Nc1ccc(Cl)c(C(=O)O)c1)c1ccccn1
  -18, 10, /, /, -9, -15
> CC(/C=N\Nc1nnc2c(n1)[nH]c1c(C)cccc12)=C\c1ccco1
  -2, 3, 0, -0.1, 10, -2
> Cc1ccc(NC(=O)c2ccc3ccccc3n2)nc1
  18, 0, 18, 0.8, -11, 16
> CCOC(=O)N1CCc2c(sc(NC(=O)CN3CCOCC3)c2C(=O)Nc2ccccc2)C1
  12, 0, -22, 0.4, -2, 10
> CC1CC(C(F)(F)C(F)(F)F)n2nc(C(=O)O)cc2N1 (stereo not drawn)
  5, -1, 5, -0.4, 3, -4
> CC(=O)NCCn1c(SCC#N)nc2ccccc2c1=O
  2, -1, -7, -1.1, -2, 4
> CCn1ncc(CN2CCC(Oc3ccc(C(=O)N4CCCC4)cc3)CC2)c1C
  0, 0, -14, -0.6, -10, 3
> COc1cc(CNC(=O)Nc2nnc([C@@H]3C[C@H](O)[C@@H](CO)O3)s2)cc(OC)c1OC
  6, /, /, -0.2, -5, 2
> Cc1ccc(SCC(=O)Nc2ccc(N3CCOCC3)cc2)c(C)c1
  /, -28, -4, 4.0, -15, 5
> Cc1cccc(OCc2nc(-c3ccc(-n4cccc4)cc3)no2)c1
  7, 3, -4, 0.0, -1, 3
> CC(=O)Nc1ccc(S(=O)(=O)Nc2ccccc2C(=O)N2CCCCC2)cc1
  4, 15, -27, 0.0, -9, 3
> Cc1cccc2sc(NS(C)(=O)=O)nc12
  3, -6, 3, -0.4, -1, 4
> CC(C)c1ccc(CNc2nc3nc4c(c(=O)n3[nH]2)CCC4)cc1
  -7, 9, 15, 0.2, -1, -2
> CCOc1cc(N2CCOCC2)c(OCC)cc1NC(=O)COC(=O)c1cc(C)cc(C)c1
  -5, 3, -22, 0.1, -4, 4
> Cc1ccc(-c2nnc(N3CCN(C(=O)CN4CCOCC4)CC3)c3ccccc23)cc1
  0, -11, 0, -0.8, 2, 5
> O=C(N/N=C/c1ccc(O)cc1)c1cc[n+](Cc2ccccc2)cc1
  0, 6, -6, -1.0, -13, -22
> COc1ccc(-n2c(Cc3cc(=O)[nH]c(=O)[nH]3)nnc2SCC(=O)Nc2ccccc2)cc1
  -18, /, 3, -0.1, -3, 11
> Cc1oc(C(C)(C)C)cc1C(=O)N1CCN(c2ncccc2C(F)(F)F)CC1
  -3, /, -7, 0.7, -3, -14
> COc1cc(C(=O)OCC(=O)NC2CCS(=O)(=O)C2)c([N+](=O)[O-])cc1OC (stereo not drawn)
  -14, 0, -4, -0.3, -8, 0
> Cc1nonc1NC(=O)OC1CCCCC1
  3, 3, 31, -0.2, -10, 3
> O=C(Cc1ccc(NC(=O)C2CCCN(C(=O)CCc3ccccc3)C2)cc1)Nc1cccc(C(=O)N2CCCCC2)c1 (stereo not drawn)
  -6, /, -9, -1.2, -6, 5
> CC1CC(C)CN(S(=O)(=O)c2ccc(NN)nc2)C1 (stereo not drawn)
  1, -7, -12, 0.3, -10, -9
> C/C(=N\Nc1ccccc1C)c1cccnc1
  10, 1, -19, -1.1, -3, 0
> Cc1ccc(CNc2ccc(Cl)cc2[N+](=O)[O-])cc1
  ?, 8, 21, 2.0, -11, ?
> Cc1onc(-c2c(Cl)cccc2Cl)c1C(=O)N=C(N)N1CC(C)OC(C)C1 (stereo not drawn)
  -3, ?, 3, -0.1, -4, 48
> CCc1nnc(NC(=O)C2CCCN(c3nc(C)cc(C)n3)C2)s1 (stereo not drawn)
  13, -3, 4, 0.6, 3, 1
> O=C(Nc1cccc(C(=O)Nc2cccc(Br)c2)c1)c1ccccc1
  3, -7, 2, 0.2, -4, -2
> Cc1ccc(C(=O)Nc2ccncc2)o1
  4, 1, 4, -0.1, 4, 2
> COc1cc(C(=O)N/C(=C\c2cn(C)c3ccccc23)C(=O)NCCCn2ccnc2)cc(OC)c1OC
  -21, ?, 5, 0.4, -13, -14
> COc1ccccc1NC(=O)C1C2C=CC(C2)C1C(=O)NCc1cccnc1 (stereo not drawn)
  5, 1, -27, 0.0, -2, 6
> C/C(CC(=O)Nc1ccc(C)c(Cl)c1)=N\NC(=O)Cc1cnc(N)s1
  /, 6, 10, 0.8, -9, -23
> CC(OC(=O)Cn1[nH]c(=O)c2ccccc2c1=O)C(=O)c1ccccc1 (stereo not drawn)
  -17, 16, 0, 1.5, -29, -14
> COc1ccc(-c2noc(-c3csc([C@@H]4O[C@H](CO)[C@H](O)[C@H](O)[C@H]4O)n3)n2)cc1OC
  5, /, -10, -0.2, -11, -4
> CCOc1ccc(NC(=O)CN(C)C(=O)c2cc(S(=O)(=O)N(C)C)ccc2N2CCCC2)cc1OCC
  -2, 5, -2, -0.4, -2, 5
> CCCCNCCOCCOc1ccc(Cl)cc1Br
  8, 14, 14, -1.3, -26, 4
> COCc1cc(=O)[nH]c(SCC(=O)Nc2ccccc2)n1
  0, 6, -9, 0.1, -6, 1
> COc1ccc(C2C(=O)N(C3CCCCC3)CC(=O)N2Cc2ccco2)cc1 (stereo not drawn)
  -4, 5, -4, -0.7, -3, -1
> CCCOc1c(Br)cc(C(=O)OCC(=O)NC2CC2)cc1OC
  0, -5, -2, 1.7, -15, 27
> CCN1CCN(CCNC(=O)c2ccc(CS(=O)(=O)c3ccccc3C)o2)CC1
  8, -9, -9, 0.0, -11, 3
> COc1ccc(Br)cc1C(C[N+](=O)[O-])c1c(N)n(C)c(=O)n(C)c1=O (stereo not drawn)
  /, -8, 10, 0.0, -11, -4
> CCC(Sc1nc2cc(OC)c(OC)cc2c(=O)n1CCc1ccc(OC)c(OC)c1)C(=O)NCCOC (stereo not drawn)
  14, 10, 13, 0.3, 11, -15
> O=C(C1CCCC1)N1CCN(S(=O)(=O)c2cccc(Cl)c2Cl)CC1
  -3, -4, -15, -0.5, -2, 11
> O=C(COC(=O)/C=C/c1cc(Br)ccc1F)Nc1ccc2[nH]c(=O)[nH]c2c1
  -11, -5, 25, -0.1, -4, -11
> Cc1ccc(C(=O)N2CCN(C(=O)C3CCCO3)CC2)cc1 (stereo not drawn)
  4, -4, 8, 0.1, -4, 7
> Cc1csc(NC(=O)C2CC(=O)N(c3ccc(C)c(C)c3)C2)n1 (stereo not drawn)
  -11, -22, -5, -0.3, 5, -6
> Cc1ccc(CNC(=S)N2CCOCC2)cc1
  /, 0, -15, 0.3, -5, -1
> CC(O)(C#CCN1CCCCC1)c1ccccc1 (stereo not drawn)
  0, -1, 9, 3.7, -15, 3
> CC(=O)NC(Cc1ccc(C)cc1)C(=O)NC1CCN(C(=O)c2cnccn2)CC1 (stereo not drawn)
  4, 29, 6, 2.6, -12, 1

Four entries picked at random from the list so far, as already listed:
Order of values: CtBP-E1A inh, TRPV1 PAM, TRPML1 inh, TRPML1 ag, D2 potentiator, Six1-Eya2 inh
> O=C(C1CCCC1)N1CCN(S(=O)(=O)c2cccc(Cl)c2Cl)CC1
  -3, -4, -15, -0.5, -2, 11
> COc1ccccc1NC(=O)C1C2C=CC(C2)C1C(=O)NCc1cccnc1 (stereo not drawn)
  5, 1, -27, 0.0, -2, 6
> COc1ccc(Br)cc1C(C[N+](=O)[O-])c1c(N)n(C)c(=O)n(C)c1=O (stereo not drawn)
  /, -8, 10, 0.0, -11, -4
> CCN1CCN(CCNC(=O)c2ccc(CS(=O)(=O)c3ccccc3C)o2)CC1
  8, -9, -9, 0.0, -11, 3

The list continues.
Order of values: CtBP-E1A inh, TRPV1 PAM, TRPML1 inh, TRPML1 ag, D2 potentiator, Six1-Eya2 inh
> COc1ccccc1CNS(=O)(=O)CCNCCc1ccccc1
  -20, /, 19, 0.9, -13, 2
> CCC(C)c1ccccc1N1CC(C(=O)N2CCN(C(=O)c3ccco3)CC2)CC1=O (stereo not drawn)
  -19, 5, -2, 2.7, -2, 3
> CCN(CC)CCCN=Cc1c(O)n(-c2ccc(C)cc2)c(=O)c2ccccc12
  -3, 3, 10, 0.1, -14, -2
> COc1ccc2[nH]c(=O)c(CN(C(=O)C(C)C)c3ccccc3OC)cc2c1
  2, 8, 13, -0.1, -3, 7
> CN(C)S(=O)(=O)c1ccc(S(=O)(=O)N2CCCC(C(=O)NC3CCCC3)C2)cc1 (stereo not drawn)
  -3, -1, -7, 0.5, -9, 8
> CC(OC(=O)Cn1nnc2ccccc21)C(=O)NC1CCCC1 (stereo not drawn)
  4, 9, 11, -0.2, -1, 7
> Cc1cc(=O)[nH]c(SCC(=O)N2CCC(C(N)=O)CC2)n1
  -4, 1, 4, -0.3, -18, 2
> CCC(C(=O)O)n1nc(-c2ccccc2)c2cc(Cl)ccc21 (stereo not drawn)
  9, ?, 15, 0.3, -9, 5
> Cc1c(-n2c(O)c(C3=c4ccccc4=NC3=O)sc2=S)c(=O)n(-c2ccccc2)n1C
  -7, -6, 2, -0.7, 22, 3
> O=C(CCCCC(=O)Nc1ccccc1)Nc1ccccc1
  1, ?, 4, 0.6, -2, 4
> CCOC(=O)N1CCN(C(=O)CSc2nc3c(cnn3-c3ccc(C)cc3)c(=O)[nH]2)CC1
  -8, 11, 15, -0.3, -1, -4
> CCN(CC)S(=O)(=O)c1ccc(C2=NOC3(C2)N(C)c2ccccc2C3(C)C)cc1 (stereo not drawn)
  1, 2, 1, 1.9, -4, -2

Screening results (PubChem)
